# Screening data (PubChem)
# Measles inh – inhibitors of measles virus growth in infected cells | 33,000 compounds, 0.1% hits | infected Vero cells, GFP fluorescence, 64 h; stronger effect = lower value | AID 745 | z-score (no concentration beside the values);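 active means z-score under -3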;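 further: score is relative to mean and SD of the compound wells of a plate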
# * = called active by the depositor.
cpd	molecule	Measles inh
1	CC1=NN(C(=O)c2cc(Cl)ccc2O)C(O)(C(F)F)C1 (stereo not drawn)	-0.62
2	COc1ccc2oc(=N)c(C(=O)Nc3ccc(C)cc3)cc2c1	0.39
3	N#CC1(C#N)C(c2ccccc2Cl)C(C(=O)c2ccccc2)N2c3ccc(F)cc3C=CC21 (stereo not drawn)	0.1
4	Cc1ccc(CNC(=O)CCCn2c(=O)[nH]c3ccsc3c2=O)cc1	-0.27
5	O=C1NN(c2ccccc2)C(=O)C2C3c4ccccc4C(c4ccccc43)C12 (stereo not drawn)	-1.03
6	CCOC(=O)C1=C(c2ccccc2)Nc2ncnn2C1c1ccc(OCc2ccccc2)cc1 (stereo not drawn)	-0.41
7	COc1cccc(N2CCN(C(=O)c3ccc4c(c3)[nH]c(=S)n3c5ccccc5nc43)CC2)c1	-1.21
8	COc1ccccc1CC(=O)NCC1COc2ccccc2O1 (stereo not drawn)	0.08
9	N#CCN1C(C(=O)c2ccccc2)=C(OC(=O)Cc2ccccc2)c2ccccc2S1(=O)=O	2.65
10	CC1CCC(C(=O)NC(C(=O)N2CCN(c3ccc(F)cc3)CC2)C(C)C)CC1 (stereo not drawn)	0.41
11	CN(C1CCCCC1)S(=O)(=O)c1ccc2[nH]c(=O)cc(C(=O)NCc3ccc(F)cc3)c2c1	0.22
12	CC(C)(C)C(=O)Nc1c2c(nn1-c1cccc(Cl)c1)CS(=O)(=O)C2	0.67
13	COc1cc(C(=O)Nc2ccc(Cl)cc2[N+](=O)[O-])cc(OC)c1OC	0.29
14	CCCC(=O)OCCCC(C)=O	0.11
15	O=C(Nc1nnc(CCc2ccccc2)s1)c1cccc(NC(=O)C(F)(F)F)c1	0.59
16	CC(C)c1nc2n[nH]c(N)c2c2c1CCCC2	-0.28
17	O=C(CSc1c2c(nc3ccccc13)CCC2)Nc1nc2ccccc2s1	1.33
18	NC(=O)c1cc(S(=O)(=O)Nc2ccc(Cl)cc2)co1	-0.86
19	CC(=O)Oc1ccc(-c2nc3ccc(C)cc3s2)cc1	-0.02
20	Cc1ccc(C2C3C(=O)N(C)C(=O)C3ON2c2ccccc2)cc1 (stereo not drawn)	0.35
21	COC(=O)c1c(NC(=O)C2C(C=C(Cl)Cl)C2(C)C)sc2c1CCCC2 (stereo not drawn)	-0.12
22	COC(=O)c1ccc(CSc2nc(-c3cccs3)nc3c2c(=O)n(C)c(=O)n3C)o1	-0.06
23	CCOC(=O)C(C)Oc1ccc2cc(-c3nc4ccccc4s3)c(=O)oc2c1 (stereo not drawn)	1.77
24	Cc1ccccc1OCC(=O)Nc1c[nH]c(=O)[nH]c1=O	1.8
25	CCOC(=O)c1cnc2c(OC)cccc2c1Nc1ccc(OCC)cc1	-0.02
26	CCOC(=O)c1ccccc1NC(=O)c1cn(CC)c(=O)c2cc(OC)c(OC)cc12	-0.2
27	O=C(Nc1ccccc1Cl)c1ccccc1Cl	-0.95
28	CCOc1ccc(-n2nc3cc(C)c(NC(=O)c4cncc(Br)c4)cc3n2)cc1	-0.3
29	O=C1c2cc([N+](=O)[O-])cc3cc([N+](=O)[O-])cc(c23)C(=O)N1c1cccc2ccccc12	2.29
30	Cc1cc(Cl)ccc1OCC(=O)NCCCN1CCOCC1	1.51
31	O=C(NC1CCCCCC1)C1CC(=O)N(C2CCCCCC2)C1 (stereo not drawn)	-0.61
32	CCOC(=O)c1c(C)nsc1NC(C)c1ccccc1 (stereo not drawn)	1.63
33	CCc1ccccc1NC(=O)CN(c1ccccc1OC)S(C)(=O)=O	-0.5
34	COc1ccccc1Oc1nc2c(c(=O)n(C)c(=O)n2C)n1Cc1ccccc1	-0.1
35	Cc1cccc(NC(=O)CS(=O)(=O)c2nc(-c3ccccc3)cn2-c2cccc(Cl)c2)c1C	0.64
36	CC(C)C(C(=O)Nc1ccccc1C(N)=O)N1C(=O)c2ccccc2C1=O (stereo not drawn)	-0.08
37	COC(=O)C1=C(O)CSC1=Nc1ccc(OC)cc1	-0.12
38	O=C(Cc1ccccc1)N1CCC(c2ccccc2)=N1	-0.42
39	Cn1c(=O)c2c(SCc3cccc(C(F)(F)F)c3)nc(-c3ccco3)nc2n(C)c1=O	-0.64
40	Cc1cccc(C(=O)Nc2cccc(-c3nc4cc(C)ccc4o3)c2C)c1	-0.66
41	CCCCN(CCCC)S(=O)(=O)c1ccc(OC)c2ncccc12	-0.42
42	O=C(Cn1c(-c2cncs2)nc2ccccc21)Nc1ccccc1Cl	-0.51
43	C=CCn1c(COc2ccc(C)cc2)nc2ccccc21	-0.43
44	O=C(CC1(O)C(=O)N(Cc2ccccc2Cl)c2ccccc21)c1ccc2c(c1)OCCO2 (stereo not drawn)	0.29
45	CCCN1C(=O)C2C(C(=O)Nc3cccc(SC)c3)C3C=CC2(O3)C1C(=O)NC1CCCCC1 (stereo not drawn)	-0.25
46	O=[N+]([O-])c1ccc(C=Nc2nc3c(s2)CCCC3)cc1	0.98
47	CCC(=O)N1CCc2cc(Br)cc(S(=O)(=O)CCC(=O)Nc3cccc(Cl)c3C)c21	-1.33
48	O=c1cc(-c2ccccc2)c2ccc(O)cc2o1	0.85
49	Cc1cccc(CSCc2ccc(C(=O)NCc3ccco3)o2)c1	-0.4
50	COC(=O)c1ccc(NC(=O)c2sc3ccccc3c2Cl)cc1	-2.02
51	Cc1ccn2c(NC(=O)c3ccc(Cl)c([N+](=O)[O-])c3)c(-c3ccccc3)nc2c1	-2
52	CCOc1ccc2cc(C(N)=O)c(=Nc3ccc(C(F)(F)F)cc3)oc2c1	0.48
53	CCC1CCCCN1C(=O)CSc1nc2nc(C)c(Cc3ccccc3C)c(C)n2n1 (stereo not drawn)	-0.6
54	Cc1ccc(Oc2ccc(N3C(=O)C4CC=CCC4C3=O)cc2Cl)cc1 (stereo not drawn)	-0.08
55	Cc1cc(C)nc(NC(=O)c2ccccc2Cl)n1	-0.07
56	O=C(Nc1c2c(nn1-c1ccc(F)cc1)CSC2)c1ccc2c(c1)OCO2	-0.53
57	O=C(CN1CCCC1)NCC1(c2ccccc2)CCCC1	-0.83
58	O=C(Nc1nc2ccc(Br)cc2s1)c1c(O)c2ccccc2[nH]c1=O	-0.27
59	Cn1cccc1CNC(=O)Nc1ccccc1	-1.61
60	O=C(Oc1cccnc1)c1ccc([N+](=O)[O-])cc1Cl	-0.19

# (further entries)
cpd	molecule	Measles inh
61	CC(C)(C)c1ccc2c(c1)C(c1ccccc1)CC(=O)O2 (stereo not drawn)	-1.26
62	O=C(NC1CCCCC1)c1ccc2c(=O)n(-c3ccccc3)c(=S)[nH]c2c1	0.88
63	CCCCOc1ccc(C(=O)Nc2cccc3c2C(=O)NC3=O)cc1	-0.25
64	COC(=O)c1c(C)oc2ccc(N(C(C)=O)S(=O)(=O)c3ccc(OC)cc3)cc12	-0.56
65	O=C(Nc1nc2ccccc2c(=O)s1)c1ccccc1	-0.48
66	CN(C)c1cccc(OCc2n[nH]c(=S)n2-c2ccccc2)c1	-0.62
67	O=C(NCc1n[nH]c(=S)n1-c1ccccc1Cl)c1ccc(S(=O)(=O)N2CCOCC2)cc1	1.08
68	CCN(CC)c1ncnc2sc(C(=O)NC3CCCC(C)C3C)c(C)c12 (stereo not drawn)	0.98
69	CCOC(=O)c1c(C)oc2ccc(N(C(=O)c3ccc([N+](=O)[O-])cc3)S(=O)(=O)c3ccc(C)cc3)cc12	2.79
70	COc1ccc(N2CCN(C(=O)Cn3c(=S)[nH]c4ccccc4c3=O)CC2)cc1	-3
71	O=C(Nc1ccccc1C(F)(F)F)c1noc2c1CCCCC2	-1.51
72	CCC(C)NC(=O)c1cc(Sc2ccc(F)cc2)nc2ccccc12 (stereo not drawn)	-0.32
73	O=C(Nc1ccn(Cc2ccc(F)cc2)n1)c1ccncc1	-0.03
74	Cc1ccc(NC(=O)CSc2c[nH]c3ccccc23)cc1	0.77
75	N#Cc1cc2c(nc1SCCS(=O)(=O)Cc1ccc(Cl)cc1)CCCC2	0.71
76	Cc1onc(-c2ccccc2Cl)c1C(=O)NC(C)c1ccccc1 (stereo not drawn)	1.51
77	CCC(=O)N1CCc2cc(Br)cc(S(=O)(=O)NCCCN3CCN(c4cccc(Cl)c4)CC3)c21	2.03
78	Cc1ccc(C(=O)Nc2ccc(-c3nc4ncccc4o3)cc2)c(Cl)c1	-0.33
79	Cc1ccc(C(C)C)c(OCC(=O)N2N=C3CCC(C)CC3C2(O)C(F)(F)F)c1 (stereo not drawn)	-0.16
80	COc1ccc(F)cc1CN1CCN(c2c3c(c(C#N)c4nc5ccccc5n24)CCC3)CC1	-0.21

# In the list so far, these contain a nitro group on carbon:
cpd	molecule	Measles inh
13	COc1cc(C(=O)Nc2ccc(Cl)cc2[N+](=O)[O-])cc(OC)c1OC	0.29
29	O=C1c2cc([N+](=O)[O-])cc3cc([N+](=O)[O-])cc(c23)C(=O)N1c1cccc2ccccc12	2.29
46	O=[N+]([O-])c1ccc(C=Nc2nc3c(s2)CCCC3)cc1	0.98
51	Cc1ccn2c(NC(=O)c3ccc(Cl)c([N+](=O)[O-])c3)c(-c3ccccc3)nc2c1	-2
60	O=C(Oc1cccnc1)c1ccc([N+](=O)[O-])cc1Cl	-0.19
69	CCOC(=O)c1c(C)oc2ccc(N(C(=O)c3ccc([N+](=O)[O-])cc3)S(=O)(=O)c3ccc(C)cc3)cc12	2.79

# Next part:
cpd	molecule	Measles inh
81	Cc1nc(N2CCOCC2)nc(Nc2cccc(Cl)c2)c1[N+](=O)[O-]	-0.02
82	CCN(CC)c1ncnc2sc(C(=O)N3CCN(Cc4ccc5c(c4)OCO5)CC3)c(C)c12	-0.97
83	COc1ccc(C2=CC(c3ccc(C)cc3)c3ccccc3O2)cc1OC (stereo not drawn)	-0.34
84	CCSc1sc(CC)cc1C1C(C(=O)Nc2cccc(F)c2)=C(C)NC2=C1C(=O)CC(C)(C)C2 (stereo not drawn)	-0.14
85	COCCNC(=O)c1ccc2c(=O)n(Cc3ccc4c(c3)OCO4)c(=S)[nH]c2c1	3.2
86	CC(=O)N1N=C(c2ccc(NS(C)(=O)=O)cc2)CC1c1ccccc1C (stereo not drawn)	0.11
87	CCOc1ccccc1Nc1nc(-c2cc3ccccc3oc2=O)cs1	-0.32
88	O=C(CCCn1c(=S)[nH]c2ccsc2c1=O)NCc1ccc(Cl)cc1	0.57
89	C=CCOC(=O)C1=C(C)Nc2nc3ccccc3n2C1c1ccc(C)o1 (stereo not drawn)	-0.05
90	COCCn1c(=S)[nH]c2cc(C(=O)NCCC(C)C)ccc2c1=O	1.49
91	O=C(CSc1ncnc2c1oc1ccccc12)Nc1nc2ccccc2s1	-0.36
92	CC1CCCC(NC(=O)C2N(C3CC3)C(=O)C3C(C(=O)Nc4ccc(Cl)cc4)C4C=CC32O4)C1C (stereo not drawn)	-0.7
93	COc1ccc2nc(NC(=O)CNC(=O)Cn3cnc4sc(C)c(C)c4c3=O)sc2c1	-0.47
94	Cn1c(=O)c2c(nc(NCCO)n2Cc2cccc(F)c2)n(C)c1=O	-0.14
95	Cc1ccc(N2C(=O)Nc3ccc(Br)cc3C2(O)C(=O)NC2CC2)cc1C (stereo not drawn)	-0.27
96	NC(=O)C1CCN(CC(=O)Nc2c3c(nc4ccccc24)CCC3)CC1	0.44
97	Cc1nc2nc(N)nn2c(O)c1Br	0.03
98	O=C(CC1N=C2c3ccccc3N=C(SCC(=O)c3ccccc3)N2C1=O)NCc1ccc2c(c1)OCO2 (stereo not drawn)	0.94
99	COCCN1C(=O)C2C(C(=O)Nc3ccc(Br)cc3)C3C=CC2(O3)C1C(=O)NC1CCCCC1 (stereo not drawn)	-0.09
100	CC(=O)N1CCN(c2ccc([N+](=O)[O-])cc2Cl)CC1	-0.23
101	CSc1ccc(C2C(C(=O)Nc3ccc(F)cc3)=C(C)NC3=C2C(=O)CCC3)cc1 (stereo not drawn)	-0.03
102	C=CCn1c(SCC(=O)Nc2ccc(C(C)=O)cc2)nnc1-c1cccs1	-0.47
103	CCCn1c2c(c(O)c(C(=O)Nc3ccccc3)c1=O)CCCC2	-0.81
104	CCOc1ccc(C2C(=O)N(C3CCCCCC3)CC(=O)N2C2CCCC2)cc1OC (stereo not drawn)	0.16
105	COc1ccc(N(C)C(=O)C(NS(=O)(=O)c2cccs2)c2ccccc2)cc1 (stereo not drawn)	-0.78
106	CC1=C(C(=O)OC2CCCC(C)C2)C(c2ccccc2Cl)NC(=O)N1 (stereo not drawn)	0.98
107	CCC(C)NC(=O)Cn1cnc2ccc(S(=O)(=O)N3CCC(C)CC3)cc2c1=O (stereo not drawn)	0.27
108	O=c1[nH]c2c(n1-c1ccccc1)C=Nc1cc3ccccc3cc1N2	0.51
109	O=C(Oc1ccc(C=Nc2ccccc2)cc1[N+](=O)[O-])c1cccc2ccccc12	-1.28
110	O=C(NCCSc1c[nH]c2ccccc12)c1cccc2ccccc12	-0.27
111	CCOC(=O)c1ccc(NC(=O)COc2c(C)cc(C)cc2C)cc1	-1.33
112	COc1ccccc1Oc1nc2c(c(=O)n(C)c(=O)n2C)n1Cc1ccc(F)cc1	0.02
113	O=C1CN(C(=O)Cc2ccccc2)C(c2ccccc2)c2cc(Cl)ccc2N1 (stereo not drawn)	0.31
114	CC1CCC2C(=O)N(c3ccc(C(=O)Oc4ccc(Br)cc4)cc3)C(=O)C2C1 (stereo not drawn)	0.7
115	Cc1nc(N2CCOCC2)nc(Nc2cccc(F)c2)c1[N+](=O)[O-]	0.53
116	O=C(O)C1CCCN1C(=O)c1ccc(N2C(=O)C3C4C=CC(C4)C3C2=O)cc1 (stereo not drawn)	0.5
117	CCc1c(C)c(C#N)c2nc3ccccc3n2c1NCCCN(C)C	-0.51
118	COc1cc2nc(=S)n3[nH]c(C(C)Oc4ccccc4OC)nc3c2cc1OC (stereo not drawn)	-1.67
119	COc1ccc(CNCc2ccccc2)cc1OC	-0.55
120	NC(=O)c1ccccc1NC(=O)COc1ccc([N+](=O)[O-])cc1	-0.28
121	O=C1NC2(Nc3ccccc31)C(=O)N(Cc1cccc3ccccc13)c1ccccc12 (stereo not drawn)	0.07
122	CC(=O)NC1=NN(C(C)=O)C(C)(c2ccc(NC(C)=O)cc2)S1 (stereo not drawn)	0.14
123	CN(C)C=Cc1cc(=S)c2ccccc2s1	-0.58
124	COc1cccc(C(=O)NCCc2cc3cc(C)c(C)cc3[nH]c2=O)c1OC	0.31
125	CC1CCCC(NC(=O)CCCNC(=O)Cn2cnc3sc4c(c3c2=O)CCCC4)C1C (stereo not drawn)	1.77

# Some of the compounds tested; count on the stated rates, not on these rows.
